# High-throughput results as filed in PubChem.
# D2 PAM – human D2 receptor positive allosteric modulation; P14416; DiscoveRx D2 beta-arrestin cells, luminescence, 90 min; 100% = 57 uM dopamine signal; potentiation, % (concentration not given with the values); actives 0.23% (n = 360,000); active = potentiation of 50% or more; inconclusive = 30% to 50%; inactive = 30% or less;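 further: compound concentration not given in the record; tested on top of an EC20 dose of dopamine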
# Target sequence (P14416 whole entry, looked up): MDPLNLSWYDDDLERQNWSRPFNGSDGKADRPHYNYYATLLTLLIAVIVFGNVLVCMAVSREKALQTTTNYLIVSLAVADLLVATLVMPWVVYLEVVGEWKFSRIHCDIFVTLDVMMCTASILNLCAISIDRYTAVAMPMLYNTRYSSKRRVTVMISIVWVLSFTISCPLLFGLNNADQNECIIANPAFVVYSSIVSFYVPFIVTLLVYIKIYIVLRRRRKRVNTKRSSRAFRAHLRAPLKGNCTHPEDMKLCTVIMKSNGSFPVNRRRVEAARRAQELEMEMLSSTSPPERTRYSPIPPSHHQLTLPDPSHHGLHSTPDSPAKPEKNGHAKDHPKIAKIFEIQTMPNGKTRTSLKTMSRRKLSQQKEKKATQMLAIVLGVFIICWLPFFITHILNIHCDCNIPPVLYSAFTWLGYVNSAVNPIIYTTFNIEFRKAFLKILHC
#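 D2 cells co-treated with compound plus 50 nM dopamine (EC20) for 90 min at 37 deg C to detect potentiation. Beta-arrestin recruitment was read as enzyme-fragment luminescence after 1 h at ambient temperature. Full response was set by 57 uM dopamine.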
# PINK1 expr mod – changes PINK1 expression. AID 624263. actives 0.2% (n = 410,000). Potency, µM (highest dose often 76.6 µM), for inactives: at the highest dose activation (PINK1 increase), hits mostly activators. PINK1 immunofluorescence, high-content cytometry, 24 h; active = well fitted activation curve with a large enough effect; inconclusive = small, poorly fitted or top-dose-only effect; inactive = flat fitted curve, though single readings scatter; cell line not stated here;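 further: potency means the concentration at half of the fitted maximal effect; % of control where 0% means no effect; nearly all actives have a fitted effect of over 65% in size; a mitochondrial uncoupler was the plate control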
#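 Decision-based qHTS: stable cells, 24 h exposure to five compound concentrations, CCCP as control. Fixed cells stained for PINK1 plus nuclear, mitochondrial and cell markers, cytometer read.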
# Six1-Eya2 inh – inhibitors of human Six1/Eya2 interaction; Q15475+O00167; AlphaScreen GST-Six1/His-Eya2 binding, biochemical; hits give low values; control for the full effect not named in the record; activity change, % (no concentration beside the values); actives 0.56% (n = 360,000); in the data active = activity change below about -65%; inconclusive = about -30% to -65%; inactive = above about -30%; further: on the % scale 0 is the no-effect control and ±100 the full control effect; compound concentration not given in the record
#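 GST-Six1 + His-Eya2 (5X stock: 250/500 nM); Tris pH 8.0, 300 mM NaCl, 0.05% BSA, 0.02% Tween 20; GSH donor/Ni acceptor beads; 1 h 37 °C dark; AlphaScreen readout.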
# D2 agonist – human D2 receptor agonism in beta-arrestin assay; AID 624465; DiscoveRx PathHunter D2 beta-arrestin, luminescence, 90 min; 100% = 57 uM dopamine signal; activation, % (no concentration beside the values); actives 0.084% (n = 360,000); in the data active = activation above about 40%; inconclusive = about 15% to 40%; inactive = below about 15%; further: compound concentration not given in the record; the text of the record calls up to 30% inactive
#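 DiscoveRx PathHunter D2 beta-arrestin cells (2,100/well) attached overnight, then compound-stimulated 90 min at 37 C in HBSS/10 mM HEPES/0.1% Tween-20 buffer; beta-galactosidase complementation read by luminescence after 1 h at ambient temperature. Dopamine 57 uM final (EC100) as control.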
# TRPML1 agonist – activates the human TRPML1 channel; actives 0.12% (n = 410,000); TRPML1-expressing cells, Ca2+ dye fluorescence, FDSS; host cell line not named in the record; reference of the full effect not given here; activation, % (no concentration beside the values); Q9GZU1; in the data active = activation above about 50%; inconclusive = about 30% to 50%; inactive = below about 30%; further: 0% is about no effect; the text of the record puts the active cut at 80%
#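 In this qHTS format, compounds were pin-transferred onto Ca8-dye-loaded TRPML1-DL cells induced with Tet overnight, and intracellular Ca2+ fluorescence was recorded kinetically for 110 s after a 10 s baseline. A subsequent 4uM final 54-4 (EC80) addition followed by a second 110 s read served as the antagonist phase.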
# CtBP-E1A blk – CtBP/E1A binding inhibition. actives 0.49% (n = 340,000). activity change, % (test concentration not listed). AlphaScreen GST-E1A/His-CtBP binding, 1536-well; hits give low values; control for the full effect not named in the record; in the data active means activity change below about -65%; inconclusive means about -30% to -65%; inactive means above about -30%; further: on the % scale 0 is the no-effect control and ±100 the full control effect; compound concentration not given in the record
#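 Protein mix (5X: 125 nM each GST-E1A, His-CtBP) was incubated with pinned compound 2 h at 37 deg C in dark, in 50 mM Tris pH 8.0 buffer with 300 mM NaCl. Glutathione donor and nickel acceptor beads followed; AlphaScreen signal read after 1 h.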
# * marks the source's active call; other numbers are inactive results; ? = inconclusive; . = no result given; [ ] = another dose, or the depositor's remark.
compound,CtBP-E1A blk,PINK1 expr mod,D2 agonist,TRPML1 agonist,Six1-Eya2 inh,D2 PAM
Cn1cnnc1SC(C(=O)c1ccccc1)c1ccccc1 (stereo not drawn),16,-2.6%,-3.9,1.0,17,-10
C=CC[C@H]1CC(C)=C[C@H](CC=C)N1,6,0.6%,-2.7,-0.4,2,1
Cc1ccc(C=Nc2ccc(N(C)C)cc2)o1,-68*,?,4.0,-0.1,?,8
O=[N+]([O-])c1ccccc1S(=O)(=O)Nc1ccc(-c2ccc3nncn3n2)cc1,0,-1.3%,-4.2,0.9,4,-24
CC1CCN(C(=O)Cn2c(=O)c3cccn3c3ccccc32)CC1,-25,0.2%,-2.9,-0.8,-6,-5
CCCN1CCC(NCc2cn(C)nc2-c2ccc(Oc3ccccc3)cc2)CC1,-17,-1.0%,-3.5,1.2,-4,-18
Cc1ccccc1-c1nc(CN(Cc2c(C)nn(C)c2C)C2CC2)c(C)o1,-19,-0.2%,-12,-0.5,-8,-10
O=Cc1ccc(OCc2ccc3ccccc3c2)cc1,1,1.8%,-3.8,0.6,-3,-15
Cc1ccc(C(=O)N2CCCC(C(F)(F)F)C2)cc1S(=O)(=O)N1CCOCC1 (stereo not drawn),12,0.0%,-1.7,0.0,-1,-15
CN(Cc1ccc2c(c1)OCCO2)C(=O)CN1C(=O)NC2(CCCCC2)C1=O,3,2.9%,-6.4,-0.3,-7,-9
COc1cc(CC(=O)OCC(=O)Nc2sccc2C(N)=O)cc(OC)c1OC,1,1.8%,13,0.8,-9,2
O=C(O)CSc1c2c(nc3cc(C(=O)N4CCCC4)ccc13)CCCC2,0,-0.7%,2.6,1.9,-4,12
Cc1c(NC(=O)Cn2nc(C(F)(F)F)c3c2CCCC3)c(=O)n(-c2ccccc2)n1C,10,-0.5%,-1.2,-0.9,4,1
CCOC(=O)Cn1nnc(-c2ccc(S(C)(=O)=O)cc2)n1,11,2.4%[38.3 µM],0.2,0.3,2,-3
O=C(CN1C(=O)NC2(CCCCC2)C1=O)Nc1ccc2c(c1)OCCCO2,-1,-1.3%,-2.1,-0.2,3,-3
Cc1nc(SCC(=O)Nc2ccc(F)cc2)c(C#N)c(C)c1CC(=O)c1ccc(Br)cc1,5,-0.1%,-3.2,1.2,3,-4
O=C(NCC1OCCc2ccccc21)c1ccco1 (stereo not drawn),-5,-0.6%,-0.4,0.0,4,-8
CCn1c(=O)c2c(nc3n2CCCN3CCc2ccc(OC)c(OC)c2)n(C)c1=O,0,0.8%,2.0,-1.8,-28,-3
CC(C)OC(=O)CC1C(=O)NCCN1C(=O)COc1ccc(C(C)(C)C)cc1 (stereo not drawn),1,3.7%,-0.3,-0.1,10,-3
CCCNC(=O)C1CC(c2ccc(C(F)(F)F)cc2)=NO1 (stereo not drawn),.,2.6%,1.1,-0.6,2,-6
COc1cc(/C=N/NC(=O)c2ccc(-c3ccccc3)cc2)cc(OC)c1OC,-22,3.3%,-0.1,0.5,-18,-13
COc1ccc(/C=C/C(=O)N(C)C2CCS(=O)(=O)C2)cc1OC (stereo not drawn),13,3.6%,0.4,0.0,14,-19
COc1ccc(C(C)=O)cc1COC(=O)CSCC(=O)Nc1ccc(C)cc1,13,0.1%,-4.0,-0.5,-5,-31
O=C(Cc1cccs1)N1CCN(S(=O)(=O)c2ccc(Br)cc2)CC1,5,-0.7%,2.0,0.6,6,1

# Part of the list above in order of length of the SMILES, high to low.
compound,CtBP-E1A blk,PINK1 expr mod,D2 agonist,TRPML1 agonist,Six1-Eya2 inh,D2 PAM
Cc1nc(SCC(=O)Nc2ccc(F)cc2)c(C#N)c(C)c1CC(=O)c1ccc(Br)cc1,5,-0.1%,-3.2,1.2,3,-4
Cc1ccc(C(=O)N2CCCC(C(F)(F)F)C2)cc1S(=O)(=O)N1CCOCC1 (stereo not drawn),12,0.0%,-1.7,0.0,-1,-15
CCn1c(=O)c2c(nc3n2CCCN3CCc2ccc(OC)c(OC)c2)n(C)c1=O,0,0.8%,2.0,-1.8,-28,-3
CN(Cc1ccc2c(c1)OCCO2)C(=O)CN1C(=O)NC2(CCCCC2)C1=O,3,2.9%,-6.4,-0.3,-7,-9
COc1cc(/C=N/NC(=O)c2ccc(-c3ccccc3)cc2)cc(OC)c1OC,-22,3.3%,-0.1,0.5,-18,-13
O=C(CN1C(=O)NC2(CCCCC2)C1=O)Nc1ccc2c(c1)OCCCO2,-1,-1.3%,-2.1,-0.2,3,-3
COc1cc(CC(=O)OCC(=O)Nc2sccc2C(N)=O)cc(OC)c1OC,1,1.8%,13,0.8,-9,2
O=C(Cc1cccs1)N1CCN(S(=O)(=O)c2ccc(Br)cc2)CC1,5,-0.7%,2.0,0.6,6,1
COc1ccc(/C=C/C(=O)N(C)C2CCS(=O)(=O)C2)cc1OC (stereo not drawn),13,3.6%,0.4,0.0,14,-19
CCOC(=O)Cn1nnc(-c2ccc(S(C)(=O)=O)cc2)n1,11,2.4%[38.3 µM],0.2,0.3,2,-3
CCCNC(=O)C1CC(c2ccc(C(F)(F)F)cc2)=NO1 (stereo not drawn),.,2.6%,1.1,-0.6,2,-6
O=C(NCC1OCCc2ccccc21)c1ccco1 (stereo not drawn),-5,-0.6%,-0.4,0.0,4,-8

# More compounds:
compound,CtBP-E1A blk,PINK1 expr mod,D2 agonist,TRPML1 agonist,Six1-Eya2 inh,D2 PAM
COCCCN(C(=O)CCOc1ccc(C(C)(C)C)cc1)c1c(N)n(Cc2ccccc2)c(=O)[nH]c1=O,-2,-0.3%,-3.2,0.2,-3,-7
Cn1nnnc1SCC(=O)N1c2ccccc2Sc2ccccc21,4,-1.1%,-1.2,0.0,-2,-15
COc1cccc(C(=O)NC(=S)NCc2ccco2)c1,-11,2.7%,-0.9,2.4,-1,-5
COc1ccc(NC(=O)CCN2C(=O)c3ccncc3C2=O)cc1OC,.,1.1%,-5.6,-0.9,11,-14
CN(C(=O)CSc1nnc(N)s1)C1CCCCC1,4,0.1%,-4.8,-0.3,9,12
COc1ccc(-n2cc(CNC3CCC(O)CC3)c(-c3cccc(F)c3)n2)cc1 (stereo not drawn),3,7.7%,0.7,-0.9,-6,-2
Cc1ccc(S(=O)(=O)N2CCOCC2)cc1NC(=O)COc1ncnc2ccccc12,-1,0.0%,0.6,1.0,2,-4
COc1ccc(CCNC(=O)c2cc(-c3ccncc3)nc3ccc(S(=O)(=O)N4CCOCC4)cc23)cc1OC,-15,-1.8%,-2.9,-0.1,5,-8
COc1cccc(NC(=O)C2c3cc(OC)c(OC)cc3C(=O)N(C)C2c2cccnc2)c1 (stereo not drawn),9,0.0%,-1.4,-0.4,4,-9
CCC(=O)N1CCc2cc(S(=O)(=O)CCC(=O)NCCC3=CCCCC3)ccc21,0,-0.6%,0.5,-0.3,-1,-17
O=C(COC(=O)c1ccc([N+](=O)[O-])o1)NCc1ccc(F)cc1,-7,1.1%,14,3.8,0,4
Cc1ccc(Nc2nnc(SCc3cc(=O)n4ccsc4n3)s2)c(C)c1,-8,-2.9%,-0.7,0.4,-8,-15
COc1ccc(NC2=NC(C)(CO)CS2)cc1 (stereo not drawn),.,-0.2%,-2.1,1.7,-2,6
CCOC(=O)c1c(CSc2ccccc2)n(C)c2ccc(O)cc12,-9,0.9%,7.2,4.9,5,-3
Cc1nn(C)c(C(=O)Nc2cccc(CN3CCOCC3)c2)c1Br,2,-1.8%,0.1,0.1,11,-21
Cc1noc(C)c1CCC(=O)Nc1c(C(C)C)cccc1C(C)C,-2,-0.9%,-2.9,0.1,9,-7
O=C(NNC(=O)C1C2CCC(C2)C1C(=O)O)c1cccc(Cl)c1 (stereo not drawn),-2,0.4%,-1.5,0.7,-2,-5
CC(Sc1ncc(C#N)c(N)n1)C(=O)Nc1ccccc1 (stereo not drawn),2,-0.3%,-1.9,-0.4,-1,-12
COc1ccc(OC)c(C(C)NC(=S)Nc2ccc(S(=O)(=O)Nc3ncccn3)cc2)c1 (stereo not drawn),-6,-0.2%,-1.3,0.2,-5,-9
O=c1oc2ccccc2cc1-c1csc(Cc2nc(-c3ccc(Br)cc3)cs2)n1,11,28%[38.3 µM],-1.0,0.5,6,0
CN1CCN(c2cc(=O)n(-c3ccc(Cl)cc3)c(=O)[nH]2)CC1,8,1.0%,-3.8,-0.1,-3,-3
COc1cccc(CNc2nc(NCc3cccs3)nc3ccsc23)c1,-8,19%,-1.9,2.7,-6,-10
CN1C(=O)N(C)C2(c3ccccc3)N(C(C)(C)C)C(=O)NC12c1ccccc1 (stereo not drawn),7,3.2%,-1.0,-0.3,8,-6
COCCNC(=O)C1CCCN(Cc2ccccc2F)CC1 (stereo not drawn),8,0.2%,-6.9,-0.2,7,-4
Cn1c(=O)c2ccccc2n(CC(=O)NC2CCCC2)c1=O,5,-0.9%,-2.7,0.4,-2,-3
O=C(CCc1nnc(CCCc2ccccc2)o1)NCCc1ccco1,3,2.4%,-0.5,0.3,1,-1
Cc1ccc(-n2nnnc2C(Cl)(Cl)c2nnnn2-c2ccc(C)cc2)cc1,-6,4.7%[38.3 µM],-0.9,0.0,2,-6
CC/C(=N\N=C(/CC)c1ccccc1N)c1ccccc1N,-26,10%,2.0,0.6,-20,-2
Cc1ccc(CNC(=O)COC(=O)CCOc2ccc(C)cc2)cc1,4,6.9%,-0.4,0.4,-6,-5
COCC1CCN(Cc2nc(-c3ccc(OC)cc3)no2)CC1,-2,-1.7%,-0.1,0.4,9,0
O=C(O)C1C2CC3C(OC(=O)C31)C2Cl (stereo not drawn),2,4.3%,1.9,-0.1,4,-4
Nc1nnc(CCC2CCCCC2)s1,16,1.4%,-1.1,3.2,4,4
